From PubChem BioAssay
Cruzain inh noDet = inhibitors of Trypanosoma cruzi cruzain without detergent; P25779; purified cruzain, Z-FR-AMC fluorescence, no detergent; Potency, µM, for the others: max response, negative = inhibition, most hits filed as inhibitors; AID 1476; actives 2.3% (n = 200,000);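 further: plate controls were enzyme without inhibitor for no effect and buffer without enzyme for full effect; nearly all actives have a fitted effect of over 40% in size; top concentration of the series not given in the record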
Target sequence (P25779 123-467 limits assumed): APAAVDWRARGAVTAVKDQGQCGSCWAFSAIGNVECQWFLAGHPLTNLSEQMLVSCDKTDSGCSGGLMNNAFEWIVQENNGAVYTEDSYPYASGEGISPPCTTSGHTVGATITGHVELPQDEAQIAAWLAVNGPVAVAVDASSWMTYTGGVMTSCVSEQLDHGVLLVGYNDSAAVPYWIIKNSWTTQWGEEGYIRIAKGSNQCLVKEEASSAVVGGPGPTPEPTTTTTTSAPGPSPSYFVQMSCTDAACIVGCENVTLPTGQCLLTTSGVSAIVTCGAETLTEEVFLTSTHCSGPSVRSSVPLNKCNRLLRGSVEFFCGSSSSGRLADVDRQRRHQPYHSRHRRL
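Detergent-free condition (0.00005% Triton X-100) in acetate buffer pH 5.5 with DTT. 1.5 nM enzyme and compound were pre-mixed 15 min, then 2 uM Z-FR-AMC substrate added; reaction progress from fluorescence change between first and third reads (60 s).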
NS1 inh = inhibitors of influenza NS1 protein function; S. cerevisiae slowed by influenza A NS1, growth recovery by OD600; Potency, µM (series often up to 46.1 µM), for inactives: top-dose activity, positive = more growth; actives 0.4% (n = 270,000); AID 2326; active means well fitted rising curve with a large enough effect; inconclusive means small, poorly fitted or top-dose-only effect; inactive means no such curve, though single readings can be large or run the other way; further: nearly all actives have a fitted effect of over 50% in size
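OD600 was taken as the measure of yeast growth restored by compound in an NS1-expressing S. cerevisiae strain. Cells had been washed out of glucose medium and diluted 1:100 into galactose -URA medium, pH 6.0.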
LASV entry inh = inhibitors of Lassa virus binding or cell entry; Lassa virus pseudotype entry inhibition, cell reporter; control for the full effect not named in the record; Potency, µM (top dose mostly 37.9 µM), for inactives: at the top dose activity change, negative = inhibition, usual class: inhibitors; actives 1.2% (n = 300,000); active means well fitted inhibition curve with a large enough effect; inconclusive means small, poorly fitted or top-dose-only effect, or effect the other way; inactive means flat fitted curve, though single readings scatter; tested in HEK293 cells; further: on the % scale 0 is the no-effect control and ±100 the full control effect; nearly all actives have a fitted effect of over 50% in size; luciferase read-out
Cruzain inh Det = inhibitors of Trypanosoma cruzi cruzain with detergent; actives 0.43% (n = 200,000); purified cruzain, Z-FR-AMC fluorescence, 0.01% Triton; AID 1478; Potency, µM, for inactives: max response, negative = inhibition, most hits filed as inhibitors;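 further: plate controls were neutral wells for no effect and buffer without enzyme for full effect; nearly all actives have a fitted effect of over 40% in size; top concentration of the series not given in the record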
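In this qHTS format, compounds are incubated with 1.5 nM cruzain for 15 min at room temperature before 2 uM Z-FR-AMC is added. Release of AMC is followed at 360/450 nm, and progress is taken as the 60 s fluorescence difference.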
Marburg entry inh = blocks Marburg virus binding to or entry into cells; Marburg virus pseudotyped entry inhibition, cell reporter; control for the full effect not named in the record; about a third of the inactives were read at about 46 µM; Potency, µM (top dose mostly 37.8 µM), for the others: top-dose activity change, negative = inhibition, hits mostly inhibitors; actives 1.8% (n = 300,000); active = well fitted inhibition curve with a large enough effect; inconclusive = small, poorly fitted or top-dose-only effect, or effect the other way; inactive = flat fitted curve, though single readings scatter; tested in HEK293 cells; about a fifth of its hits are not listed in these tables; further: on the % scale 0 is the no-effect control and ±100 the full control effect; luciferase read-out
2A StopGo = lowers the luciferase signal of an FMDV 2A StopGo reporter. actives 1.2% (n = 410,000). human cells with a luciferase reporter of 2A StopGo recoding; control for the full effect not named in the record. Potency, µM (highest dose often 57.9 µM), without a hit: at the highest dose signal change, negative = less light; active = well fitted falling curve with a large enough effect; inconclusive = small, poorly fitted or top-dose-only effect; inactive = no such curve, though single readings can be large or run the other way; tested in HEK293T cells; further: on the % scale 0 is the no-effect control and ±100 the full control effect; nearly all actives have a fitted effect of over 45% in size; luciferase light after 4 h
SARS PLP yeast = inhibitors of SARS-CoV papain-like protease in yeast | S. cerevisiae expressing SARS-CoV PLpro, growth rescue; control for the full effect not named in the record | actives 0.19% (n = 330,000) | Potency, µM (doses to about 32.9 µM), for the others: at the top dose activity, positive = growth rescue | AID 485353; active means well fitted rising curve with a large enough effect; inconclusive means small, poorly fitted or top-dose-only effect; inactive means no such curve, though single readings can be large or run the other way; further: 0% is about no effect; nearly all actives have a fitted effect of over 55% in size; growth read by luminescence after 48 h
RE007 growth inh = less growth of the S. pombe RE007 Vpr strain; AID 651644; Potency, µM (highest dose often 92.2 µM), inactives show at the top dose activity change, negative = less growth; actives 0.21% (n = 360,000); S. pombe RE007 Vpr strain, BacTiter-Glo ATP luminescence, 24 h; control for the full effect not named in the record; active = well fitted falling curve with a large enough effect; inconclusive = small, poorly fitted or top-dose-only effect; inactive = no such curve, though single readings can be large or run the other way;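 further: on the % scale 0 is the no-effect control and ±100 the full control effect; nearly all actives have a fitted effect of over 50% in size; the assay follows cell death caused by Vpr and the record does not say whether a fall means rescue or toxicity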
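Fission yeast strain RE007, carrying one chromosomally integrated HIV-1 vpr copy, was seeded at OD 0.01 in PMG+AL medium with 23 nL pinned compound. After 24 h at 30 °C and 99% humidity, viability was read by BacTiter-Glo luminescence.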
The depositor's hits bear a star; ? = inconclusive; . = not tested or not shown; & = joins results of further samples; [ ] = remark or other dose. Unless noted, the call rests on the fitted dose curve; in most records, active means well fitted curve in the direction sought with a large enough effect; inconclusive means small, poorly fitted or top-dose-only effect, or another doubt; inactive means no such curve, though single readings can be large; an effect the other way counts as inactive or inconclusive. Potency means the concentration at half of the fitted maximal effect.

SMILES | Cruzain inh noDet | NS1 inh | LASV entry inh | Cruzain inh Det | Marburg entry inh | 2A StopGo | SARS PLP yeast | RE007 growth inh
O=C(Nc1ccc2c(c1)OCCO2)c1cc(-c2ccccc2)nc2ccccc12 | ? | -14% | -30% | 1.9% | ? | -25% | -16% | -8%
Cn1c(=O)[nH]c(=O)c2c1nc(N1CCN(Cc3ccccc3)CC1)n2CCCc1ccccc1 | -1% | -18% | ? | 0.6% | -10% | -16% | 0% | 8%
COc1ccc(C)cc1S(=O)(=O)Nc1ccc(F)c(Cl)c1 | 6% | -8% | 8% | -13% | -17% | 65%[activator] | ? | 9%
O=C(CC(CC(=O)c1ccc(Br)cc1)c1cccnc1)c1ccc(Br)cc1 | . | 2% | -3%[46.1 µM] | . | ? | 0% | 1% | -2%
O=C(CN(CC1CCCO1)C(=O)CNS(=O)(=O)c1ccccc1)NCc1ccccc1 (centres undefined) | 12% | -3% | -4% | 0.3% | -8% | 5% | 1% | 11%
O=S(=O)(c1cccc(-c2nnc(SCc3nc4ccccc4s3)o2)c1)N1CCOCC1 | 3% | -3% | -20% | 3.5% | 1% | 38%[activator] | -1% | 2%
CCOc1ccc(NC(=O)CCc2c(C)nc3cc(-c4ccccc4OC)nn3c2C)cc1 | 4% | . | 28%[46.1 µM] | 0.3% | 14%[46.1 µM] | 31%[activator] | . | .
COC(=O)C1CCN(Cc2nnc(-c3ccccc3)o2)CC1 | . | 4% | 5%[46.1 µM] | . | ? | 12% | -1% | 1%
Cc1ccc(NC(=O)CN(C)C(=O)c2n[nH]c(=O)c3ccccc23)cc1 | . | . | 3%[46.1 µM] | . | -5%[46.1 µM] | -4% | 0% | 6%
O=C(CSC1=NCCN1)NC(c1ccccc1)c1ccccc1 | . | . | ? | . | -18% | 32µM* | -1% | 2%
CCOc1ncccc1C(=O)Nc1ncc(C)s1 | . | -2% | . | . | 4%[46.1 µM] | 22% | 5% | -7%
O=C(NCc1cccs1)c1ccc(CS(=O)(=O)c2ccc(Cl)cc2)o1 | -1% | -14% | 12µM* | 5.0% | -14% | -8% | -3% | 8%
COc1ccc(N(CC(=O)NCCc2ccc(C)cc2)S(=O)(=O)c2c(C)nn(C)c2C)cc1 | ? | . | -3%[46.1 µM] | -3.4% | 9%[46.1 µM] | -15% | . | .
Cn1ccc2cc(S(=O)(=O)N3CCN(C(=O)Nc4cccc(F)c4)CC3)ccc21 | -20% | . | -9%[46.1 µM] | -4.6% | . | -20% | . | .
O=C(O)CCCCCNC(=O)c1ccccc1 | 2% | -3% | 19% | -6.4% | ? | 8% | 10% | 5%
COCc1cc(C)nc2sc(C(=O)Nc3ccccc3F)c(N)c12 | . | -2% | . | . | . | 33%[activator] | 0% | -8%
Cc1cccc(C(=O)NC(=S)NCc2cccnc2)c1 | -5% | 13% | 0% | -0.8% | 14% | -14% | 0% | -10%
CC(C)CC(NC(N)=O)C(=O)NCCc1ccc(Cl)cc1 (centres undefined) | . | . | ? | . | 5%[46.1 µM] | -8% | 1% | 0%
COc1ccc(S(=O)(=O)N2CCC(C(=O)NCc3ccncc3)CC2)cc1OC | . | -17% | 12%[46.1 µM] | . | 16%[46.1 µM] | 16% | -1% | -7%
O=C(CCNC(=O)c1ccc(Br)cc1)Nc1cccc(S(=O)(=O)N2CCCCCC2)c1 | . | . | -27% | . | ? | 5% | -4% | 12%
OC(COCc1ccc2c(c1)OCO2)CN1CCCCC1 (centres undefined) | . | 6% | . | . | . | -2% | 0% | -9%
CCc1ccc(C(=O)CSc2nc(N)cc(=O)[nH]2)cc1 | . | ? | 26%[46.1 µM] | . | 15%[46.1 µM] | -2% | 9% | -8%
COc1cc(NC(=O)c2sc3ncn(CC(=O)N4CCCC(C)C4)c(=O)c3c2C)cc(OC)c1OC (centres undefined) | . | -11% | . | . | . | -10% | 1% | -2%
CN(CCOc1ccc(Cl)cc1)CC(O)c1ccccc1 (centres undefined) | . | 0% | 0% | . | ? | -27% | 1% | -24%
CC(C)CN(C(=O)COC(=O)C1CC1)c1c(N)n(Cc2ccccc2)c(=O)[nH]c1=O | . | . | -13% | . | -11% | -14% | -3% | 0%
Cc1ccc2nc(-c3ccco3)c(Nc3ccccc3)n2c1 | -9% | -1% | -4% | 1.2% | 1%&1% | -12% | -5% | -26%&-8%
CCOC(=O)N1CCN(C(=O)CCl)CC1 | . | 1% | . | . | ? | ? | -1% | 25%
CCCN(CCC)CCNC(=O)Cn1cc2c(n1)-c1c(oc(C(=O)N3CCCC3)c1C)CC2 | -7% | . | -16%[46.1 µM] | -0.2% | . | -13%&9% | . | -8%
CC(=O)Oc1ccc(/C(C)=N\N2CCN(Cc3ccc(Cl)cc3)CC2)cc1 | . | -3% | . | . | . | ? | -1% | 1%
NS(=O)(=O)c1ccc(CCNC(=O)CSc2ccc3ccccc3c2)cc1 | . | . | -4%[46.1 µM] | . | -8%[46.1 µM] | -5% | -1% | 4%
CCC(c1nnc(SCC(=O)N2CCOCC2)n1C1CCCCC1)N(C)C (centres undefined) | . | -1% | . | . | . | -12% | 0% | 10%
CCc1nnc(NC(=O)c2nc(S(=O)(=O)Cc3cccc(C)c3)ncc2Cl)s1 | -16% | -6% | ? | -3.4% | ? | 4.5µM* | 21% | -17%
Cc1ccc(C(=O)Nc2nc3ccccc3n2CCN2CCCC2)cc1 | ? | 2% | 10% | -4.3% | ? | -5% | 0% | 4%
Cc1cc(C(=O)COC(=O)CC2Sc3ccccc3NC2=O)c(C)n1-c1ccc2c(c1)OCO2 (centres undefined) | 25µM* | ? | -6% | -1.2% | 16% | 37%[activator] | -2% | -11%
CCc1ccc(S(=O)(=O)c2nnn3c2nc(N2CCN(c4ccccc4)CC2)c2cc(Cl)ccc23)cc1 | 16% | . | . | 1.3% | 2%[46.1 µM] | -18% | . | .
CC(C)(C)n1ncc2c(=O)n(Cc3c(F)cccc3Cl)cnc21 | 8% | -47% | 1% | 0.4% | 1% | 0% | -4% | 1%
O=C(NCC(c1ccc(F)cc1)N1CCOCC1)c1cccc(Br)c1 (centres undefined) | . | . | -17%[46.1 µM] | . | ? | -27% | -1% | -2%
COC(=O)COc1ccc(/C=C2/SC(=O)N(CC(=O)N3CCCC3)C2=O)cc1Br | 4% | 0% | -4% | -5.7% | -17% | 4% | 2% | -4%
Cc1ccc(C(=O)C2CCN(C(=S)NCC3CCCO3)CC2)cc1 (centres undefined) | . | -4% | . | . | . | 5% | 9% | 0%
COc1ccc(CCNC(=O)CSc2nc(O)cc(=O)[nH]2)cc1OC | . | ? | . | . | . | -10% | 2% | 26%
CCN(C(=O)COC(=O)c1cccc(S(=O)(=O)NCc2ccccc2)c1)c1ccccc1 | . | . | ? | . | -14% | 9% | -1% | 3%
Cc1c(NC(=O)c2cc(=O)[nH]c(=O)[nH]2)c(=O)n(-c2ccccc2)n1C | 4% | 0% | -11% | 0.9% | 25% | -4% | 1% | -4%
CCCCn1c2ccccc2c2nnc(SCCN3CCCCC3)nc21 | . | -4% | -1% | . | 2% | -29% | -1% | 2%
CCc1ccc(Nc2n[n+](-c3ccccc3)c(-c3ccc(OCc4ccccc4)cc3)s2)cc1 | . | -26% | . | . | . | -1% | -11% | -3%
Cc1cccc(-c2nc3cc(NC(=O)Cc4ccc(Cl)cc4)ccc3o2)c1 | ? | . | -1%[46.1 µM] | 0.0% | . | 14% | . | .
CCOc1ccc(-c2nnc(Nc3ccc(OC)c(C(=O)N4CCCCC4)c3)c3ccccc23)cc1 | 2% | -6% | . | -12% | 3% | -11% | -17% | 3%
Cc1ccc2c(n1)sc1c(=O)n(-c3cccc(C(F)(F)F)c3)nnc12 | 0% | . | ? | -1.4% | -11%[46.1 µM] | 38%[activator] | . | .
Cc1ccc(C)c(S(=O)(=O)Nc2ccc3[nH]c(=O)[nH]c3c2)c1 | . | 15% | -3%[46.1 µM] | . | 3%[46.1 µM] | 10% | 4% | 2%
O=C(N/C(=C/c1ccco1)C(=O)N1CCc2ccccc21)c1ccco1 | . | 9% | -12% | . | ? | 26% | -5% | -3%
Cc1cc(=O)oc2cc(OCC(=O)NCCc3c[nH]c4ccc(F)cc34)ccc12 | . | 16% | . | . | . | -12% | -2% | -2%
COc1ccc(OC)c(Nc2ncnc3c2cnn3-c2ccc(C)cc2)c1 | -8% | . | ? | -1.8% | . | 2% | . | .
COc1cccc(OC)c1C(=O)Nc1ccc2c(c1)N(C(C)=O)CCC2 | -10% | . | 20%[46.1 µM] | -0.9% | . | -8% | . | .
COc1ccc(OCC(=O)Nc2cccc(-c3nc4ccccc4o3)c2)cc1 | 28% | 16% | 3% | -6.6% | -14% | -1% | 8% | 1%
CCOC(=O)C1(Cc2ccccc2C)CCCN(C(=O)CN2CCCCC2=O)C1 (centres undefined) | . | -3% | -14%[46.1 µM] | . | 18%[46.1 µM] | 22% | -5% | 12%

Structural class, the entries above containing two or more sulfur atoms (four)
SMILES | Cruzain inh noDet | NS1 inh | LASV entry inh | Cruzain inh Det | Marburg entry inh | 2A StopGo | SARS PLP yeast | RE007 growth inh
O=S(=O)(c1cccc(-c2nnc(SCc3nc4ccccc4s3)o2)c1)N1CCOCC1 | 3% | -3% | -20% | 3.5% | 1% | 38%[activator] | -1% | 2%
O=C(NCc1cccs1)c1ccc(CS(=O)(=O)c2ccc(Cl)cc2)o1 | -1% | -14% | 12µM* | 5.0% | -14% | -8% | -3% | 8%
NS(=O)(=O)c1ccc(CCNC(=O)CSc2ccc3ccccc3c2)cc1 | . | . | -4%[46.1 µM] | . | -8%[46.1 µM] | -5% | -1% | 4%
CCc1nnc(NC(=O)c2nc(S(=O)(=O)Cc3cccc(C)c3)ncc2Cl)s1 | -16% | -6% | ? | -3.4% | ? | 4.5µM* | 21% | -17%
